LT uptake inh: qHTS Assay for Anthrax Lethal Toxin Internalization; Cells, anthrax lethal toxin internalization, FRET ratio (460/530); AID 912, 2007; Potency, µM (top dose mostly 40 µM), inactives show top-dose activity change, negative = inhibition, most hits filed as inhibitors; hit rate 0.67% among 70,000; active = well fitted falling ratio curve with the 530 nm signal flat; inconclusive = other ratio curves, or a change in one channel alone; inactive = flat curves in the ratio and both channels; the % refers to the ratio; also: % is scaled to controls: 0 for no effect and ±100 for the full control effect; nearly all actives have a fitted effect of over 50% in size; tested in ME-180 cells; beta-lactamase reporter
SmPrx2 inh: Schistosoma Mansoni Peroxiredoxins (Prx2); Schistosoma mansoni peroxiredoxin 2 (Prx2); S. mansoni Prx2 activity coupled to TGR/GSH (TGR is thioredoxin glutathione reductase), NADPH fluorescence loss, qHTS; some inactives read as strong as hits; Potency, µM; hit rate 0.07% among 65,000; active means full or partial inhibition curve with a strong effect at the top dose; inconclusive means weaker partial or single-point curve; inactive means no accepted curve; also: series up to 57 µM; many of its hits are not listed in these tables
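Enzyme mix: 100 uM NADPH, 25 nM TGR, 700 uM GSH, 50 nM Prx2 in 100 mM phosphate pH 7.4, 10 mM EDTA, 0.01% Tween-20. 15 min RT with compound; NADPH/GSH added, H2O2 starts reaction; NADPH fluorescence read 8 min.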
Starred values were filed as active, the others as inactive; & = joins results of further samples; [ ] = another dose, or the depositor's remark. Potency is read from the fitted curve at half-maximal effect. The list is partial; the hit share may differ from the screen's.

`Cc1cc(C(=O)NCCCN2CCOCC2)n(-c2ccccc2)n1` gave LT uptake inh -9.7% and SmPrx2 inh >57.
`Cc1ccccc1N(CC(N)=O)S(C)(=O)=O` gave LT uptake inh -1.4% and SmPrx2 inh >57.
Clc1ccc(OCCN2CCN(c3ncnc4sccc34)CC2)cc1 was read as LT uptake inh -15.1% and SmPrx2 inh >57.
For Cc1cc(C)n2nc(CC(=O)NC3CCCC(C)C3C)nc2n1 (stereo not given) the results were LT uptake inh inconclusive and SmPrx2 inh >57.
Screening c1ccc(C2(Cn3ccc4ccccc43)OCCO2)cc1 returned LT uptake inh inconclusive.
`O=C(NC1CCCCC1)C1CN(S(=O)(=O)c2ccccc2)CCN1S(=O)(=O)c1ccccc1` (stereo not given) gave LT uptake inh -7.7% and SmPrx2 inh >57.
Screening CCOc1ccc2[nH]c(=O)c(CN(Cc3cccs3)C(CC)c3nnnn3C(C)(C)CC)cc2c1 (stereo not given) returned LT uptake inh -9.8% and SmPrx2 inh >57.
Clc1ccccc1Nc1c2c(nc3ncnn13)CCC2 was read as LT uptake inh -1.8% and SmPrx2 inh >57.
COc1ccccc1N1CCN(C(=O)c2c(-c3ccccc3Cl)noc2C)CC1 was read as LT uptake inh inconclusive and SmPrx2 inh >57.
`CCOC(=O)c1cc(-c2nnc(-c3cc(OC)c(OC)c(OC)c3)o2)c(C)nc1C` gave LT uptake inh -6.4% and SmPrx2 inh >57.
`O=c1[nH]c(=O)n(-c2ccc(F)cc2)c(O)c1C=Nc1ccccc1N1CCCC1` gave LT uptake inh -1.8% and SmPrx2 inh >57.
For CCc1cccc(Nc2cc(C)nc3nc(C)nn23)c1 the results were LT uptake inh -8.1% and SmPrx2 inh >57.
CN1C(=S)SC(/[N+]([O-])=C\c2ccco2)C1(C)C (stereo not given) was read as LT uptake inh 7.8% and SmPrx2 inh >57.
`COc1cc(C(=O)OCc2cc3ccccc3[nH]c2=O)cc(OC)c1OC` gave SmPrx2 inh >57.
Screening CN1C(=O)c2ccccc2C(C(=O)NCC2CCCO2)C1c1c[nH]c2ccccc12 (stereo not given) returned LT uptake inh 14.3% and SmPrx2 inh >57.
Screening N[C@@H](Cc1c[nH]c2ccc([N+](=O)[O-])cc12)C(=O)O returned LT uptake inh 6.9%[8 µM] and SmPrx2 inh >57.
Screening Cc1ccc(CCNC(=O)C2CCN(S(=O)(=O)c3ccc4c(c3)CCC(=O)N4)CC2)cc1 returned LT uptake inh -0.4% and SmPrx2 inh >57.
For Cc1cc2c(cc1C)NC(c1ccccn1)C1=C(CC(C)(C)CC1=O)N2 (stereo not given) the results were SmPrx2 inh >57.
For COc1ccc(-c2cc(C(=O)O)c(C)o2)cc1OC the results were LT uptake inh 11.1%.
Screening CCN(CC(=O)Nc1c(C(=O)OC)[nH]c2ccccc12)c1ccc2c(c1)OCO2 returned LT uptake inh -13.8% and SmPrx2 inh >57.
O=C(Cn1c(=O)n2ncnc2c2c3c(sc21)CCCC3)c1ccccc1 was read as LT uptake inh -9.1% and SmPrx2 inh >57.
Screening Cc1cc(-c2nnc(-c3cc4ccccc4oc3=O)o2)c(C)n1-c1ccccc1 returned LT uptake inh inconclusive and SmPrx2 inh >57.
`Cc1cc(C)nc(NS(=O)(=O)c2ccc(NC(=O)CCN3C(=O)c4ccccc4C3=O)cc2)n1` gave LT uptake inh -14.3%.
CC1=C(C)C(=O)N(c2ccccn2)C1=O was read as LT uptake inh 2.9% and SmPrx2 inh >57.
For COc1ccc(-n2c(=O)[nH]cc(C(=O)Nc3ccc4c(c3)OCCO4)c2=O)cc1 the results were LT uptake inh inconclusive and SmPrx2 inh >57.
For COc1ccc(S(=O)(=O)Nc2ccc(S(=O)(=O)N3CCOCC3)cc2)cc1 the results were LT uptake inh 1.7%.
For COC(=O)C1CCN(c2cc(=O)n(C3CCCCC3)c(=O)[nH]2)CC1 the results were LT uptake inh 2.5% and SmPrx2 inh >57.
O=C(c1noc2c1CCc1ccccc1-2)N1CCc2ccccc2C1 was read as LT uptake inh inconclusive and SmPrx2 inh >57.
`CCN(CC)S(=O)(=O)c1ccc2oc(C(=O)NCC3COc4ccccc4O3)c(C)c2c1` (stereo not given) gave LT uptake inh inconclusive and SmPrx2 inh >57.
`CCOC(=O)c1c(NC(=O)CSc2nnnn2-c2ccc3c(c2)OCCO3)sc(C)c1C` gave LT uptake inh 3.6% and SmPrx2 inh >57.
Cn1c(=O)c2c(nc(CN3CCOCC3)n2CCCO)n(C)c1=O was read as LT uptake inh -0.4% and SmPrx2 inh >57.
Screening OCCN1CCOCCN(CCO)CCOCC1 returned LT uptake inh -11.8% and SmPrx2 inh >57.
For COc1ccc(NC(=O)CSc2nnc(-c3ccccn3)n2N)cc1Cl the results were LT uptake inh -8.8% and SmPrx2 inh >57.
Screening c1csc(-c2nnc(-c3ccc(N4CCOCC4)cc3)o2)c1 returned LT uptake inh -0.6% and SmPrx2 inh >57.
For COc1cc(-c2nc3oc4ccccc4c(=O)c3c(=O)n2Cc2ccco2)cc(OC)c1OC the results were LT uptake inh -5.2% and SmPrx2 inh >57.
For Cc1cccc(S(=O)(=O)c2c(N)n(Cc3ccco3)c3nc4ccccc4nc23)c1 the results were LT uptake inh -8.6% and SmPrx2 inh >57.
For CN1CCc2cc3c(cc2[C@@H]1[C@H]1OC(=O)c2c1ccc1c2OCO1)OCO3 the results were LT uptake inh inconclusive and SmPrx2 inh >57&>57.
For O=C(CN1CCC(n2nnc3cc(F)ccc32)CC1)NCc1ccco1 the results were LT uptake inh -8.4% and SmPrx2 inh >57.
`CCc1c(C)nc2ncnn2c1N1CCC(C(=O)NCc2ccc3c(c2)OCO3)CC1` gave LT uptake inh -4.5% and SmPrx2 inh >57.
For O=C1CC(N2CCN(S(=O)(=O)c3cccc(C(F)(F)F)c3)CC2)C(=O)N1Cc1ccccc1 (stereo not given) the results were LT uptake inh -25.7% and SmPrx2 inh >57.

Reprinted at random: two entries already listed.
For O=C(CN1CCC(n2nnc3cc(F)ccc32)CC1)NCc1ccco1 the results were LT uptake inh -8.4% and SmPrx2 inh >57.
Screening c1ccc(C2(Cn3ccc4ccccc43)OCCO2)cc1 returned LT uptake inh inconclusive.

Going on with the list.
COc1ccc(C2CC(=O)Nc3ccccc3S2(=O)=O)cc1OC (stereo not given) was read as LT uptake inh -0.6% and SmPrx2 inh >57.
Screening CCOCCCn1cnc2c(c1=O)c1nc3ccccc3nc1n2-c1ccc(C)cc1 returned LT uptake inh -5.8% and SmPrx2 inh >57.
Screening CCN1CCCC1CNS(=O)(=O)c1ccc(C(=O)Nc2ccccc2)cc1 (stereo not given) returned LT uptake inh -2.8% and SmPrx2 inh >57.
Cc1cc(C)c(C#N)c(SCC(=O)N(C)C2CCCCC2)n1 was read as LT uptake inh inconclusive and SmPrx2 inh >57.
Screening CCOC(C)(C)C returned LT uptake inh 2.2%.
For CCOC(=O)CSc1nnc(CNC(=O)c2ccco2)n1C the results were LT uptake inh 8.7% and SmPrx2 inh >57.
`CCc1nc(C)ccc1OCC(=O)O` gave LT uptake inh 5.7% and SmPrx2 inh >57.
Screening CCN(CC)c1ccc(C=Nc2ccc(C#N)cc2)c(O)c1 returned LT uptake inh -21.5%.
Screening O=C1OCC2=C1C(c1ccc3c(c1)OCO3)Sc1ccccc1N2 (stereo not given) returned LT uptake inh 10.7% and SmPrx2 inh >57.
For CCOC(=O)CN1c2ccccc2NC(=O)CC1C (stereo not given) the results were LT uptake inh -5.9% and SmPrx2 inh >57.
`Cc1nn2c(C(F)(F)F)cc(-c3ccc(Cl)cc3)nc2c1C(=O)N1CCOCC1` gave LT uptake inh -20.5%.
CCCN1CCN(CCCNC(=O)C2CCCN(c3nc4ccc(OCC)cc4s3)C2)CC1 (stereo not given) was read as LT uptake inh inconclusive and SmPrx2 inh >57.
`CC(C)c1ccc2oc(-c3ccc(N)cc3)nc2c1` gave LT uptake inh inconclusive.
`O=C(C1CCN(c2nnc(N3CCCC3=O)s2)CC1)N1CCN(Cc2ccc3c(c2)OCO3)CC1` gave LT uptake inh inconclusive and SmPrx2 inh >57.
Cc1cccn2c(=O)c3cc(C(=O)NCCN4CCOCC4)n(Cc4ccccc4)c3nc12 was read as SmPrx2 inh >57.
Nc1nc(SCC(=O)O)[nH]c(=O)c1N was read as LT uptake inh -2.7%[8 µM] and SmPrx2 inh >57.
`CCOC(=O)c1cc(NC(=O)c2ccoc2C)cc(C(=O)OCC)c1` gave LT uptake inh 4.5% and SmPrx2 inh >57.
`CN(Cc1cc(Cl)cc(Cl)c1O)Cc1c(O)ccc2ccccc12` gave LT uptake inh -6.8%[8 µM] and SmPrx2 inh >57.
For CCN(C(=O)CSc1nc2nc(C)cc(C)n2n1)c1ccccc1 the results were LT uptake inh -4.3% and SmPrx2 inh >57.
For CN1CCN(c2ccnc(-c3ccccc3C(F)(F)F)n2)CC1 the results were LT uptake inh 0.1% and SmPrx2 inh >57.
Screening CC(=O)C1=C(C)NC(SCC(=O)c2ccc(C)cc2)=C(C#N)C1c1ccco1 (stereo not given) returned LT uptake inh inconclusive.
Screening COc1cccc(C=Nc2cccnc2)c1O returned LT uptake inh 12.6% and SmPrx2 inh >57.
For Cc1nc(CNS(=O)(=O)c2cccnc2)cs1 the results were LT uptake inh -2.9% and SmPrx2 inh >57.
For COc1cccc(C2=NOC(C(=O)N3CCc4ccccc4C3)C2)c1 (stereo not given) the results were LT uptake inh inconclusive and SmPrx2 inh >57.
`Cc1csc(SCCn2c(N3CCOCC3)nc3c2c(=O)[nH]c(=O)n3C)n1` gave LT uptake inh 0.7% and SmPrx2 inh >57.
`COCCNc1cc(C)nc2c(-c3ccccc3OC)c(C)nn12` gave LT uptake inh 13.0% and SmPrx2 inh >57.
CCCc1cc(=O)[nH]c(/N=C(/NC(=O)c2ccccc2)Nc2ccc3c(c2)OCCO3)n1 was read as LT uptake inh -11.2% and SmPrx2 inh >57.
Screening CCOC(=O)Nc1c(C(=O)OC)[nH]c2cc(OC)ccc12 returned LT uptake inh -3.9% and SmPrx2 inh >57.
Screening Cc1ccc2c(c1)NC(=O)C(CC(=O)NCCCN1CCCCC1C)O2 (stereo not given) returned LT uptake inh -11.5% and SmPrx2 inh >57.
`CCCC[C@@H]1C[C@H]1C(NC(=O)c1ccco1)c1ccccc1C(F)(F)F` (stereo not given in full) gave LT uptake inh inconclusive and SmPrx2 inh >57.
For Cn1c(=O)n(CC(=O)NC2CCCCC2)c(=O)c2ccccc21 the results were LT uptake inh 3.4% and SmPrx2 inh >57.
`O=C(O)CCCC(=O)Nc1ccc(C(=O)NCc2cccnc2)cc1` gave LT uptake inh -5.0% and SmPrx2 inh >57.
Screening Cc1cnc(CNc2ncnc3ccc(-c4ccoc4)cc23)cn1 returned LT uptake inh -11.1% and SmPrx2 inh >57.
COC(=O)[C@@H]1CC[C@H](C)[C@@H](c2ccc(C)cc2)N1C(=O)c1ccc(/C=N\O[C@@H](C)CN2CCCc3nc(C)c(C)cc32)cc1 was read as LT uptake inh inconclusive.
`CCCNC(C)(C)COC(=O)c1ccccc1` gave LT uptake inh -1.6%[3.58 µM] and SmPrx2 inh >57.
For CCN(CC)CCNC(=O)c1ccc(NC(C)=O)cc1 the results were LT uptake inh -0.1% and SmPrx2 inh >57.
Screening CC(C)C(=O)Nc1cc(=O)[nH]c2ncnn12 returned LT uptake inh -4.4% and SmPrx2 inh >57.
Screening CCCCc1cc(=O)oc2cc(C)cc(OCc3nn[nH]n3)c12 returned LT uptake inh -2.0% and SmPrx2 inh >57.
Screening COc1cccc(CNn2cnnc2)c1OCc1ccc(F)cc1 returned LT uptake inh -0.7% and SmPrx2 inh >57.
`COc1ccccc1N1CCN(C(=O)C2CC=CCC2C(=O)O)CC1` (stereo not given) gave SmPrx2 inh >57.
CCc1c2c(nc3cccc(C(C)C)c13)-c1cccc(=O)n1C2 was read as LT uptake inh -23.7% and SmPrx2 inh >57.
For CSc1ncc(Cl)c(C(=O)Nc2nnc(SC)s2)n1 the results were LT uptake inh 10.9% and SmPrx2 inh >57.
Screening CCC#CCOCC(=S)Nc1ccccc1 returned LT uptake inh -6.0% and SmPrx2 inh >57.
For COc1cc(-c2[o+]c3cc(O)cc(O)c3cc2O)cc(O)c1O the results were LT uptake inh -2.4%[8 µM] and SmPrx2 inh >57.
CCn1c2c(c3cc(Br)ccc31)CCC/C2=N\O was read as LT uptake inh inconclusive and SmPrx2 inh >57.
For Cc1noc(C)c1CSc1nc2cc(S(=O)(=O)N3CCOCC3)ccc2o1 the results were LT uptake inh -1.0% and SmPrx2 inh >57.
Screening COc1cccc(CNCc2ccccn2)c1OC returned LT uptake inh -19.6% and SmPrx2 inh >57.

Structures from the list above with a CF3 group:
For O=C1CC(N2CCN(S(=O)(=O)c3cccc(C(F)(F)F)c3)CC2)C(=O)N1Cc1ccccc1 (stereo not given) the results were LT uptake inh -25.7% and SmPrx2 inh >57.
`Cc1nn2c(C(F)(F)F)cc(-c3ccc(Cl)cc3)nc2c1C(=O)N1CCOCC1` gave LT uptake inh -20.5%.
For CN1CCN(c2ccnc(-c3ccccc3C(F)(F)F)n2)CC1 the results were LT uptake inh 0.1% and SmPrx2 inh >57.
`CCCC[C@@H]1C[C@H]1C(NC(=O)c1ccco1)c1ccccc1C(F)(F)F` (stereo not given in full) gave LT uptake inh inconclusive and SmPrx2 inh >57.
